Sa RN4220 lethal – growth inhibition of S. aureus RN4220, primary screen, OD600; 16 h; inhibition, % (test concentration not listed); 330,000 tested, 0.33% active;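 active = z-score of -3 or lower and OD600 up to 0.18 on both plates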;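 note: plate controls were untreated cells for no effect and reference antibiotic for full effect; stock transfer was 100 nL into about 80 µL; one replicate is shown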
Mtb hypoxia rep – PubChem AID 1159583; M. tuberculosis hypoxia-regulated fluorescent reporter, fluorescence; fluorescence inhibition, % (concentration not given with the values); 300,000 tested, 0.1% active;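 active = 35 to 45% if threefold the growth effect, above 45% if 1.5-fold the growth effect; inactive = the rest, general growth blockers included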;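 note: wells of about 50 µL received 100 nL stock; 0% = vehicle wells and 100% = reference inhibitor wells; whole bacteria with a GFP reporter of the hypoxia response; strong numbers were not always called active; many hits fall short of the cut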
BJeLR viability – MLPCN primary cell-based screen for lethality selective to Ras in HRASV12 cells; BJeLR (HRASV12) viability, CellTiter-Glo ATP luminescence, 48 h; reference of the scale not given here; inhibition, % (concentration not given with the values); 300,000 tested, 0.17% active; AID 1554, 2009;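 active = replicate mean above 50%; inconclusive = above 50% but judged a plate artefact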;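 note: 50 nL library stock added to about 25 µL; numbers are from one replicate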
PrP UTR inh – inhibition of PrP 5' UTR reporter expression; cell-based PrP 5' UTR mRNA reporter, plate reader; inhibition, % (test concentration not listed); 340,000 tested, 0.35% active; AID 488862, 2010;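 active = every replicate at 50% or more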;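 note: 0 = median of the neutral control wells; tested in H4 reporter cells; numbers are from one replicate; inactives centre near -14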
Autofluor counter – flagged as autofluorescent in microsphere protease counterscreen; fluorescence intensity (test concentration not listed); AID 624483; compound autofluorescence counterscreen, microsphere flow cytometry; stronger effect = higher value; 360,000 tested, 3.1% active;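 active = at least 3 SD above the mean of all compounds, about 16000 in these data; inconclusive = too few beads counted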;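 note: 100 nL of 1 mM stock went into each well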
Sa ugtP lethal – growth inhibition of ugtP-null S. aureus, primary screen, RN4220 ugtP deletion, OD600 | 16 h; some inactives read as strong as hits | growth inhibition, % (no concentration beside the values) | 330,000 tested, 0.54% active;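 active = z-score under -3 and OD600 up to 0.15 on both plates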;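 note: plate controls were untreated wells for no effect and antibiotic for full effect; wells of about 80 µL received 100 nL stock; the first replicate is given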
Mtb hypoxia rep growth – further read-out of Mtb hypoxia rep, marked with its call; growth inhibition, %; measured here: M. tuberculosis growth (absorbance);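 0% = vehicle and 100% = reference antibiotic; read after six days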
Active calls of the source: *; ? = inconclusive; · = no result given. No enrichment for hits, and some 3.9% of all compounds hit somewhere here.

SMILES	Sa RN4220 lethal	Mtb hypoxia rep	Mtb hypoxia rep growth	BJeLR viability	PrP UTR inh	Autofluor counter	Sa ugtP lethal
COc1ccccc1-c1nnc2sc(COc3ccccc3)nn12	3.4	5	9	3	-28	20024*	5
CN(C)C=Nc1ncc(C(=O)OC(C)(C)C)s1	5.8	14	6	·	·	·	8
O=C(O)c1[nH]c2ccc(Cl)cc2c1CC(=O)N1CCN(c2ccccc2)CC1	7.8	·	·	-3	5	2429	11
COc1ccc(C(=O)NC(=S)NCc2ccco2)cc1OC	7.1	4	12	4	-10	3198	7
COc1ccc(N2CCN(S(=O)(=O)c3ccc(OC)cc3)CC2)cc1	3.9	6	15	17	-10	6898	25
COc1cc(/C=C2/NC(=O)N(Cc3ccccc3F)C2=O)ccc1O	3.4	-4	4	0	-19	4628	-3
COc1ccc(CCNC(=O)c2cc(=O)c3ccc(C)cc3o2)cc1OC	-1.5	-3	-6	2	-14	2877	7
OC(CNCC1(N2CCCCC2)CCCCC1)COc1ccc(Cl)cc1Cl (stereo unspecified)	-6.1	-3	-1	3	-17	3434	-4
Cc1ccccc1-n1c(C)cc(/C=N/Nc2ccc([N+](=O)[O-])cn2)c1C	·	·	·	0	-62	4782	·
O=C(c1ccccc1Sc1c(Cl)cccc1[N+](=O)[O-])N1CCOCC1	6.2	11	6	-5	-1	1965	-2
CC(C)NC(=O)CSc1nnc(-c2ccc(C(C)(C)C)cc2)n1C	-1.5	2	-6	3	2	8654	-2
COc1cccc(OCCCOc2ccccc2C(C)C)c1	-5.6	2	-2	6	-12	12612	76
Cc1ccc2[nH]c(C(=O)NN=C3CCCCC3)c(-c3ccccc3)c2c1	-8.0	-3	5	12	-16	3898	-3
CC1CCC(=O)N(CC(C)CSc2ccccc2)CC1 (stereo unspecified)	7.5	9	7	·	·	·	5
Cc1ccc(OC(=O)c2sc(Cl)nc2C)cc1C	9.2	13	4	2	8	9726	4
CN(Cc1cccc([N+](=O)[O-])c1)Cc1cccc2ccccc12	0.9	4	0	1	-24	3613	13
COc1ccccc1C(=O)Oc1ccc(C(C)C)cc1	2.6	15	1	-3	-3	10270	47
COC(=O)CNC(=O)Cc1c(C)n(C(=O)c2ccc(Cl)cc2)c2ccc(OC)cc12	2.7	5	-4	-4	1	4330	12
Cn1cccc1C(C#N)(CC#N)c1cccc(F)c1C#N (stereo unspecified)	6.8	15	10	-1	-8	4169	6
CCOC(=O)C1=C(Nc2cccc(Cl)c2)OCC1=O	-1.5	·	·	10	-8	2990	8
CCCc1[nH]nc2c1C(Cc1ccccc1)C(C#N)=C(N)O2 (stereo unspecified)	3.0	4	6	8	-16	3607	8
CC(=O)c1c(C)[nH]c(C(=O)OCC(=O)NCCc2ccc(F)cc2)c1C	3.1	6	7	-3	-15	3820	-5
CCNC(=S)Nc1ccc(Cl)c([N+](=O)[O-])c1	·	·	·	9	-9	3615	·
CCOc1ncccc1C(=O)Nc1ccc(F)cc1	1.9	-3	-7	-3	6	4322	-3
CC1(C)CC(=O)C2=C(C1)OC(N)=C(C#N)C2CCc1ccccc1 (stereo unspecified)	8.0	·	·	·	10	2076	2
CC(C)[C@H](NC(=O)N1CC(=O)Nc2ccccc21)C(=O)N[C@@H](Cc1c[nH]c2ccccc12)C(=O)O	-0.2	·	·	3	-15	5437	-2
Cc1c(OCC(=O)NC(Cc2ccc(Cl)cc2)C(=O)O)ccc2c1oc(=O)c1ccccc12 (stereo unspecified)	1.7	·	·	6	-12	5600	-5
COc1ccc(CCNC(=O)NC2CCCCC2)cc1OC	2.6	-13	-8	3	1	?	4
COc1ccc(CNCCc2ccccc2F)c(OC)c1C	0.8	0	3	-10	-12	3803	4
COc1ccc(-c2noc(CCC(=O)N3CCN(c4ccc(C(F)(F)F)cc4)CC3)n2)cc1	-4.8	-7	2	·	-11	2836	-6
COc1ccc(CC2(CO)CCN(Cc3cnn(-c4ccccc4OC)c3)CC2)cc1	1.5	-3	14	0	-18	5568	2
CCCNC(=O)c1ccc(N2CCC3(CC2)CC(c2cccc(Br)c2)=NO3)c(N)c1	4.4	3	14	·	-30	3857	6
O=C(NC1CCN(c2ncccn2)CC1)c1c(F)cccc1F	0.7	12	9	-11	-7	3272	15
CCn1cc(CCCC(=O)NCc2cccc(OC)c2)c2ccccc21	-3.0	2	8	-3	-18	4110	-4
C=CCOc1nc(N2CCCC2)nc(N2CCCC2)n1	2.3	5	4	1	-6	9349	-1
O=C(Cc1ccccc1)N1CCN(S(=O)(=O)c2ccc([N+](=O)[O-])cc2)CC1	28	-1	2	2	-16	3484	13
Cc1coc2cc3oc(=O)c(CCC(=O)NCc4ccccn4)c(C)c3cc12	1.2	·	·	-5	-39	5575	-5
CN1/C(=C\C(=O)c2oc3ccccc3c2N)C(C)(C)c2ccccc21	3.7	·	·	-6	-4	2822	-6
COc1ccc(-c2csc(NC(=O)c3ccc(C(C)(C)C)cc3)c2C(=O)O)cc1	7.3	6	9	-5	·	·	-10
COc1cccc(C(=O)CSc2nnc(-c3cccs3)o2)c1	2.1	8	12	3	-22	12536	-9
CCOc1ccc(S(=O)(=O)N/N=C2/CCCC(=O)C2)cc1	·	·	·	-1	-30	2463	·
COc1ccc(CCN(C)C(=O)CNC(=O)Cc2cccc3ccccc23)cc1OC	1.6	10	0	-2	-19	5276	-3
O=C(Nc1ccc([N+](=O)[O-])cc1)c1ccccc1F	2.6	4	2	0	-20	2467	-2
Cc1c(C(=O)N2CCN(Cc3cccs3)CC2)oc2ccccc12	1.9	15	6	·	-32	3915	8
CC(C)OCCCN1CN(S(=O)(=O)c2cccs2)c2nc3ccccc3nc21	5.8	0	2	-9	·	·	12
COC(=O)NN=Cc1ccc(OCCSc2ccc(Cl)cc2)c(OC)c1	3.7	-4	-4	·	·	·	2
CCOc1cc(C(=O)Nc2ccc(N3CCN(S(C)(=O)=O)CC3)cc2)cc(OCC)c1OCC	3.8	10	8	6	-16	3236	-6
Cc1ccccc1OCC(=O)N(Cc1cccs1)C1CCS(=O)(=O)C1 (stereo unspecified)	9.2	10	3	-1	-23	4241	1
N=c1oc2ccccc2cc1C(=O)Nc1cccc(F)c1	2.5	-4	-4	3	-25	3653	-2
Cc1cc(C(=O)CN2C(=O)NC3(CCCCC3C)C2=O)c(C)n1Cc1cccs1 (stereo unspecified)	6.1	8	1	-8	-91	2290	4
CCc1nnc(N/N=C/c2ccc(N3CCC(C)CC3)c([N+](=O)[O-])c2)n1N	·	·	·	5	6	2451	·
CCC1(CC)C(=O)NC(=S)N=C1N	4.5	22	8	·	-22	4040	9
CC(C)Cc1nc2c(nnn2Cc2ccccc2F)c(=O)[nH]1	1.9	3	-2	7	2	4612	4
C=CCn1c(SCC(=O)c2ccc(F)cc2)nnc1-c1ccc2c(c1)OCO2	4.8	2	3	5	-17	3577	3
COc1ccccc1N(CC(=O)Nc1ccccc1C(F)(F)F)S(=O)(=O)c1cccs1	-0.4	-3	-5	·	-2	9341	-3
CC1CCCN(C(=O)c2ccc(S(=O)(=O)N3CCC(c4nc5ccccc5s4)CC3)cc2)C1 (stereo unspecified)	3.6	1	0	14	-10	7810	-16
CC(C)n1cc(/C=C2/NC(=O)N(c3cccc(Cl)c3)C2=O)c2ccccc21	2.0	2	3	0	-23	9444	-5
NC(=O)C1CCN(c2nc(-c3ccccc3C(F)(F)F)cs2)CC1	1.7	15	6	·	-40	3954	-1
COC(=O)C1CN(C(=O)COc2cc(C)c(Cl)c(C)c2)c2ccccc2O1 (stereo unspecified)	3.1	10	2	-7	-19	3715	-8
CCc1ccc(NC(=O)CSc2nc3ccccc3nc2N2CCCC2)cc1	2.8	4	8	5	-19	5314	-15
Next entries follow:
SMILES	Sa RN4220 lethal	Mtb hypoxia rep	Mtb hypoxia rep growth	BJeLR viability	PrP UTR inh	Autofluor counter	Sa ugtP lethal
Cn1c(CNC(=O)c2ccc3c(c2)OCO3)nnc1SCC(=O)Nc1ccc(F)cc1	0.8	-6	-8	-9	-6	5140	10
CC(C)C(C(=O)NC1CCCCC1)N(CC1CCCO1)C(=O)CNS(=O)(=O)c1ccc(F)cc1 (stereo unspecified)	-5.5	·	·	-5	-23	2809	3
Oc1ccc(CN2CCN(c3ncccn3)CC2)cc1	0.5	8	11	-4	-22	4074	2
Cc1noc(C)c1C(=O)OCC(=O)NCCc1ccccc1	2.4	4	4	·	-14	5467	3
CC(C)CN1C(=O)c2ccc(C(=O)Nc3ccncc3)cc2C1=O	4.1	10	3	2	·	8065	16
CCCOc1ccccc1NP(=O)(Oc1ccccc1)Oc1ccccc1	0.8	-4	-4	-2	2	3326	4
COc1ccc(C2CC2/C(C)=N/OC(=O)C2CC2)cc1 (stereo unspecified)	·	·	·	4	-22	3550	·
COc1ccc(N2CCN(C(=O)COC(=O)CCOc3cc(C)ccc3C)CC2)cc1	-0.9	1	6	-3	-9	6815	3
CC(=O)N1c2ccc(S(=O)(=O)N3CCC(C(=O)NCc4ccccc4Cl)CC3)cc2CC1C (stereo unspecified)	-2.3	2	8	11	-19	4768	6
Cc1ccc(Nc2nnc(SCC(=O)NCCN3C(=O)CSC3=O)s2)cc1C	6.6	13	4	-6	-11	2309	-5
Clc1ccc2nc(-c3cccc(SC4CCCCC4)c3)c(NCc3ccccc3)n2c1	-10	6	11	-3	-26	4022	-27
O=C(NCCc1ccc(C(F)(F)F)cc1)C1CC(=O)N(Cc2ccccc2)C1 (stereo unspecified)	2.6	17	40	·	-16	7540	-3
O=C(CCc1c[nH]c2ccccc12)N1CCN(c2ccc(F)cc2)CC1	4.3	-6	-9	5	-25	5154	8
Cc1ccc2c(Cl)cc(Cl)c(O)c2n1	99*	13	9	·	13	3084	99*
COc1ccc(C=NOC(=O)c2ccc(Cl)cc2)c(Cl)c1OC	2.2	14	-2	·	·	·	1
CCCOc1ccc(C=NNC(=O)CN2CCCCC2)cc1OCC	0.6	1	2	·	·	·	0
CCOc1ccc(NC(=NCc2ccc3c(c2)OCO3)SC2CC(=O)N(c3ccc(C(=O)O)cc3)C2=O)cc1 (stereo unspecified)	2.8	7	2	6	-29	2594	27
Cc1cccc2c1OCCC2=NNC(=O)COc1ccccc1	0.7	6	5	·	·	·	-9
O=C(Nc1ccccc1Oc1ccccc1)c1cccs1	5.7	9	10	3	·	3558	5
Cc1cc(OC(C)C(=O)NCCc2c[nH]c3ccccc23)c2c(C)cc(=O)oc2c1 (stereo unspecified)	2.6	·	·	-6	-45	5515	-6
NC(=O)CC(N)c1cn(C(CC(N)=O)C(=O)N2CCNCC2)nn1 (stereo unspecified)	7.1	4	6	·	·	·	-1
c1coc(-c2nc(-c3ccco3)c(-c3ccco3)nc2-c2ccco2)c1	9.1	1	5	11	-8	·	15
CCNc1nc(NCC)n2c(SCC(=O)Nc3ccccc3C(F)(F)F)nnc2n1	3.5	-1	-1	3	-16	6474	2
CCCCN(C(=O)CNC(=O)c1ccco1)C(C(=O)NC1CCCCC1)c1cccnc1 (stereo unspecified)	2.0	6	2	-4	-21	3423	4
O=C(COc1ccc(F)cc1)Nc1ccc2c(c1)OCCO2	3.2	13	-10	11	-50	4381	13
CC(C)C(=O)N(Cc1cc(=O)[nH]c2ccccc12)c1ccccc1	9.1	7	2	4	-8	2378	0
CCCNC(=O)COc1cccc(C(=O)NCc2ccccc2)c1	1.0	4	-1	1	-3	1988	-1

Part of the list above in order of SMILES length, low to high.
SMILES	Sa RN4220 lethal	Mtb hypoxia rep	Mtb hypoxia rep growth	BJeLR viability	PrP UTR inh	Autofluor counter	Sa ugtP lethal
Cc1cccc2c1OCCC2=NNC(=O)COc1ccccc1	0.7	6	5	·	·	·	-9
O=C(COc1ccc(F)cc1)Nc1ccc2c(c1)OCCO2	3.2	13	-10	11	-50	4381	13
CCCNC(=O)COc1cccc(C(=O)NCc2ccccc2)c1	1.0	4	-1	1	-3	1988	-1
NC(=O)CC(N)c1cn(C(CC(N)=O)C(=O)N2CCNCC2)nn1 (stereo unspecified)	7.1	4	6	·	·	·	-1
CCNc1nc(NCC)n2c(SCC(=O)Nc3ccccc3C(F)(F)F)nnc2n1	3.5	-1	-1	3	-16	6474	2
CCOc1ccc(NC(=NCc2ccc3c(c2)OCO3)SC2CC(=O)N(c3ccc(C(=O)O)cc3)C2=O)cc1 (stereo unspecified)	2.8	7	2	6	-29	2594	27
